Yeast UUG start – modulators of yeast start codon fidelity, primary screen, whole organism, S. cerevisiae, single point, plate reader. S. cerevisiae UUG-firefly luciferase reporter, luminescence/redox ratio. activity score, % at 18.7 µM. 350,000 compounds, 0.13% hits;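 active means replicate mean at a twofold rise or more, about +100% in these data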;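 further: firefly luciferase made from a UUG start codon reports start codon fidelity; reporter light over untreated wells divided by growth signal over untreated wells; some hits fall short of that in this replicate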
CSC inhib – cancer stem cell viability inhibitors, primary screen, luminescence; AID 2717, 2010; inhibition, % at 7.5 µM; 300,000 compounds, 1.1% hits; cancer stem cell-like cells viability;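 active means mean at 75% or more and at least half the replicates too; inconclusive means mean and replicates disagree; tested in HMLE shEcad cells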;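 further: 0% = median of negative and 100% = median of positive control wells; the first replicate is given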
PABP FP inh – PABP poly(A) RNA binding inhibitors, primary screen, biochemical, fluorescence polarization, uHTS; inhibition, % at 35 µM; 290,000 compounds, 1% hits; AID 2014, 2009;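 active means 50% or more with normal probe brightness, or confirmed in later tests; inconclusive means above 50% with abnormal brightness, or retests that disagree; inactive means below 50% or failed in later tests; about a fifth of its hits are not listed in these tables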;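 further: calls also rest on retests at 20 µM and on dose response follow-up; controls were probe without protein and protein plus probe with vehicle; some compounds called inactive have numbers as strong as hits; many hits fall short of the cut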
eIF4H FP inh – human eIF4H binding inhibitors, primary screen, translation initiation inhibitor project, biochemical, uHTS, fluorescence polarization; Eukaryotic translation initiation factor 4H (Homo sapiens), Q15056; 290,000 compounds, 0.94% hits; AID 2012, 2009; eIF4H fluorescence polarization binding assay; inhibition, % at 35 µM;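 active means 50% or more with normal probe brightness, or confirmed in later tests; inconclusive means above 50% with abnormal brightness, or retests that disagree; inactive means below 50% or failed in later tests; about a fifth of its hits are not listed in these tables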;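 further: calls also rest on retests at 20 µM and on dose response follow-up; 0% = protein and probe with vehicle and 100% = probe without protein; strong numbers were not always called active; many hits fall short of the cut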
MT1-MMP act inh – blockers of MT1-MMP proenzyme processing, primary screen, HT1080 RFP-PRO-GFP cells, GFP/RFP fluorescence | Matrix metalloproteinase-14 (Homo sapiens), P50281 | GFP/RFP ratio fluorescence, overnight; percent of plate control window, DMSO zero | GFP/RFP ratio change, % at 20 µM | 360,000 compounds, 0.061% hits;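 active means GFP/RFP ratio change of at least 30% with cell ATP level not reduced by more than half and red fluorescence within 50% of control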; further: strong numbers were not always called active
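Material: RFP-PRO-GFP reporter HT1080 cells. Dosing: single-point 20 µM compound, 1% DMSO. Controls: DMSO and RFP-L50D-GFP cell wells. Timing: cells overnight before dosing, compound overnight, 37 °C, 5% CO2. Measure: GFP/RFP fluorescence ratio.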
HIV Env fusion – inhibitors of HIV-1 Env-driven cell-cell fusion, primary screen, HeLa-JRFL effector, CEM21 target cells, luciferase; inhibition, % at 12.3 µM; 360,000 compounds, 1.1% hits;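 active means mean replicate inhibition score of at least 50 and every replicate individually at or above 50; inconclusive means only one of the two criteria met; inactive means mean below 50 and not all replicates reaching 50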;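 further: 0% = plate neutral controls and 100% = maraviroc near 300 nM; one replicate is shown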
Rce1 inh – yeast Rce1p protease inhibitors, primary screen, biochemical, fluorescence, cell-free homogeneous; 290,000 compounds, 0.27% hits; yeast membranes, quenched prenylated peptide cleavage fluorescence; calls only; CAAX prenyl protease 2 (Saccharomyces cerevisiae (strain ATCC 204508 / S288c)), Q03530;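 active means fall in fluorescence gain of 50% or more versus controls, with final raw signal at or below 3038400; inconclusive means same 50% fall but final raw signal above 3038400; inactive means fall in fluorescence gain under 50%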;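 further: plate controls were neutral control wells for no effect and wells lacking membranes for full effect; tested at 10 µM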
Target sequence (Q03530 whole entry, looked up): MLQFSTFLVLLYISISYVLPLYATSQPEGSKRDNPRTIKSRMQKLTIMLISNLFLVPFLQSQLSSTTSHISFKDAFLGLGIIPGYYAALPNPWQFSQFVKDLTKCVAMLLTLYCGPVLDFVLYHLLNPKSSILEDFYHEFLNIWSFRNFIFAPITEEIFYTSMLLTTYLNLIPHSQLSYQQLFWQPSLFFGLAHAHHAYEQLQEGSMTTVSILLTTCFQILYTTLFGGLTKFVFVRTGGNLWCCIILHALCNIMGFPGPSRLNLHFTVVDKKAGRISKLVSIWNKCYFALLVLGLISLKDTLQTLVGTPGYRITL
eIF4H FP inh retest – further read-out of eIF4H FP inh, marked with its call; inhibition, %; compound at 20 µM; confirmation average;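 mean of two retest wells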
PABP FP inh retest – further read-out of PABP FP inh, marked with its call; inhibition, %; compound at 20 µM; confirmation repeats;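 mean of two retest wells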
MT1-MMP act inh RFP – recorded beside MT1-MMP act inh, whose call it bears; RFP signal change, %; measured here: RFP expression control read;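 0 = vehicle wells; hits needed this value within 50% of zero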
* marks the source's active call; other numbers are inactive results; i = inactive; ? = inconclusive; nt = not tested or not shown; & = joins results of further samples; [ ] = dose if it differs, or a comment.

SMILES	Yeast UUG start	CSC inhib	PABP FP inh	eIF4H FP inh	MT1-MMP act inh	MT1-MMP act inh RFP	HIV Env fusion	Rce1 inh	others
CCOC(=O)c1csc(-c2ccc3c(c2)CCO3)n1	-11	7	6	4	-1	-1	-140	i
COc1ccccc1C(=O)c1nc2ccccc2n1C	-24	-2	5	-2	4	0	-40	i
O=C1COc2ccc(C(=O)COC(=O)/C=C/c3ccco3)cc2N1	-8	-16	nt	nt	3	-3	nt	nt
CC(=O)Nc1cnc(-c2ccccc2C(C)=O)cn1	-1	nt	nt	nt	-2	-3	-4	nt
COCC(C)n1c(C)cc(C(=O)COC(=O)c2n[nH]c3ccccc23)c1C (stereo unspecified)	nt	-5	3	4	-2	1	nt	i
O=C(CN1C(=O)NC2(CCCc3ccccc32)C1=O)NCC(F)(F)F (stereo unspecified)	nt	-7	-15	-2	1	1	7	i
CC(C)CC(=O)Nc1nnc(CSCc2ccc(F)cc2)s1	-8	-2	10	-2	2	-5	11	i
O=C(c1cnn2c(C(F)F)cc(-c3ccccc3)nc12)N1CCSCC1	-15	-7	-11	-2	11	4	-26	i
COc1ccc(NC(=O)C2C3C=CC4(O3)C2C(=O)N(CCN2CCCCC2)C4C(=O)NC2CCCC(C)C2C)cc1 (stereo unspecified)	9	20	10	-3	-1	1	0	i
CC(C)(C)[C@H]1C=C(C(=O)N2CCN(Cc3ccc4c(c3)OCO4)CC2)O[C@@H](OCc2ccc(CO)cc2)C1	-7&-3	5	12	-8	8	-7	5[16.7 µM]	i
Cc1ccccc1Nc1nnc(SCC2CCCCO2)s1 (stereo unspecified)	-40	4	-3	6	4	1	-47	i
O=c1ccc(Br)c[nH]1	-7	2	-8	-1	-13	0	0	i
O=C(NCc1ccco1)c1ccc(CN2CCOCC2)cc1	-15	-4	-8	-10	2	6	-7	i
Cc1cc(-c2nnc(CCC(=O)NCc3cc(F)cc(C(F)(F)F)c3)o2)no1	-17	-1	-11	-1	1	2	8	nt
O=C(Nc1ccc(Nc2ccccc2)cc1)Nc1ccccc1Cl	-18	100*	6	-6	6	2	-29	i
COC(=O)c1ccc(COC(=O)CCS(=O)(=O)c2ccc(C)cc2)cc1	nt	-6	-3	-8	2	0	1	i
C=CCc1ccccc1OCC(O)CNC1CCCC1 (stereo unspecified)	-9	23	-1	-9	-3	1	2	i
CC(=O)OCC1OC(OC(C)=O)C(NC(=O)Cc2ccccc2)C(OC(C)=O)C1OC(C)=O (stereo unspecified)	-8	-1	7	0	0	3	10	i
Nc1ccc(SC(F)(F)F)cc1	-7	-9	-4	-1	-1	1	4	i
Cc1ccc(C(=O)N/N=C/c2ccc([N+](=O)[O-])s2)cc1	nt	-1	5	8	3	-8	nt	i
O=C(CN1C(=O)C2C3c4ccccc4C(c4ccccc43)C2C1=O)Nc1cccc(C(=O)O)c1 (stereo unspecified)	-8	15	5	2	-9	-1	7	i
c1ccc(CSc2nnc(-c3c[nH]c4ccccc34)o2)cc1	11	-10	5	5	-9	-7	nt	i
COc1cc(OC)cc(C(=O)OCC(=O)Nc2sccc2C(N)=O)c1	1	2	-3	4	6	3	1	i
COc1ccccc1OCC(=O)NNc1c2ccccc2nc2ccccc12	nt	1	-5	-7	13	-9	9	i
Cc1ccc(-n2c(C)cc(/C=C(\C#N)C(=O)NCC3CCCO3)c2C)cc1 (stereo unspecified)	7	-9	11	8	-7	-6	-127	i

(cont.)
SMILES	Yeast UUG start	CSC inhib	PABP FP inh	eIF4H FP inh	MT1-MMP act inh	MT1-MMP act inh RFP	HIV Env fusion	Rce1 inh	others
CC1=C(C(=O)N2CCOCC2)CC(CC(=O)NC(c2ccccc2)c2ccccc2)C(=O)N1CCCN1CCCC1=O (stereo unspecified)	4	nt	nt	nt	5	7	23	nt
O=C(COc1ccc(Cl)cc1)Nc1nnc(-c2ccco2)o1	nt	nt	-5	-5	10	7	-10	i
COc1cccc(C=Nc2ccccc2C#N)c1O	8	-1	-9	-10	2	6	26	i
CC(=O)Nc1ccc(S(=O)(=O)N2CCN=C2c2ccccc2)cc1	1	0	16	18	0	-2	-4	i
Cc1cc(Nc2ccc(Br)cc2)n2nc(C)nc2n1	-12	2	3	10	2	0	21	i
O=C(O)COc1ccccc1/C=N/NC(=O)Cc1ccccc1	-11	-2	12	4	0	5	-1	i
Cc1cccnc1NC(=O)C(C)Oc1ccccc1 (stereo unspecified)	-20	-11	13	4	-2	4	nt	i
N#Cc1ccccc1S(=O)(=O)N1CCN(C(=O)[C@@H]2CCCN2C(=O)c2cccs2)CC1	-13	9	nt	nt	-5	4	2	nt
CCCNc1cc(=O)n(C)c(=O)n1C	-24	-17	1	-6	2	1	nt	i
CC1=CC(C)(C)NC(=S)N1c1ccc(C)c(C)c1	0	-12	23	-4	1	-12	-12	i
COc1ccc(NC(=O)c2ccccc2)cc1NS(=O)(=O)c1ccc(F)cc1	-13	1	-13	-8	4	3	-13	i
Cc1cc(C)nc(SCc2ccccc2C#N)n1	-1	-10	4	-2	0	5	nt	i
COc1ccc(C)cc1NC(=O)CNC(=O)c1sc2ccccc2c1Cl	-15	-19	nt	nt	0	-2	18	i
COc1ccc(N2C(=O)C3C(C2=O)C(C(=O)c2ccccc2)N2CCCC32)cc1 (stereo unspecified)	-18	6	10	33	-16	4	-1	i
CCOc1ccc2ccccc2c1C(=O)N[C@@H]1C(=O)N2[C@@H]1SC(C)(C)[C@@H]2C(=O)O	8&-12	-3&-5	2	7	5&2	6&2	4&19	i
CC(C)c1cc(=O)n2[nH]c(SCc3ccccc3)nc2n1	-9	-8	-2	2	-1	-5	0	i
CN(C)S(=O)(=O)c1cccc(NC(=O)Cc2ccc(Cl)cc2)c1	nt	-7	-9	-2	1	-6	12	i
COc1ccc(C(=O)NC2CCCc3ccccc32)cc1[N+](=O)[O-] (stereo unspecified)	-10	47	3	-1	-3	-4	0	i
COc1ccc(CNC(=O)CCS(=O)(=O)c2ccc3c(c2)NC(=O)CS3)cc1	-8	0	17	-4	-6	0	13	i
CCC(C)NC(=O)c1cnn2c1NC(c1cccs1)CC2C(F)(F)F (stereo unspecified)	-4	6	-3	-10	2	1	nt	i
CC(C)(C)c1nnc2sc(SCC(=O)N3CCCCC3)nn2c1=O	-6	nt	nt	nt	1	0	5	nt
Clc1cc2nc3ccccn3c2cc1Cl	nt	-2	2	1	-4	-6	nt	i
O=C1c2ccc(-c3ccc(Cl)c(C(F)(F)F)c3)cc2S(=O)(=O)c2cccc(C(=O)N3CCN(c4ncc(Br)cn4)CC3)c21	-16	nt	nt	nt	4	-3	-1	nt
CSc1c(CN2CCN(C)CC2)c2ccccc2n1C	-15	-32	nt	nt	-2	2	-3	i
CC(=O)Oc1cccc(/C=C2\C=C(c3ccc(C)cc3)OC2=O)c1	nt	-13	42	27	-1	-1	-19	i

(list continues)
SMILES	Yeast UUG start	CSC inhib	PABP FP inh	eIF4H FP inh	MT1-MMP act inh	MT1-MMP act inh RFP	HIV Env fusion	Rce1 inh	others
Cc1ccc(S(=O)(=O)c2cc3c(=O)n4ccccc4nc3n(C3CCCCC3)c2=N)cc1	-15	-13	4	3	4	-11	3	i
CC1(C)CC(=O)c2c(O)cc(OCC(=O)Nc3ccc(S(N)(=O)=O)cc3)cc2O1	-19	-7	6	-8	-2	-10	nt	nt
CC1(C(=O)Nc2cnc3ccccc3c2)CCN1CCOc1ccccc1 (stereo unspecified)	16	nt	nt	nt	2	1	-5	nt
CN1CCC(N(C)CC(=O)Nc2ccc3c(c2)OC(F)(F)O3)CC1	-13	27	-2	14	3	3	-1	i
CCCn1nnnc1SCC(=O)N1C(C)CCCC1C (stereo unspecified)	-13	nt	12	-5	-1	1	-14	i
CC(C)(C)c1cc(C(=O)NNC(=O)c2ccc(Cl)cc2)no1	-6	-4	-4	-12	0	4	-9	i
COc1cc(CN2CCC(Cc3ccccc3)CC2)cc(OC)c1OC	-5	-11	6	-4	-1	0	6	i
CCOC(=O)C1=C(O)/C(=C/c2ccc(CNC(=O)C(=O)Nc3ccc(C)cc3)o2)N=C1C	nt	7	119	103*	-12	6	nt	i	eIF4H FP inh retest=94*;PABP FP inh retest=23
COc1ccc(-n2cc(CNCc3cccnc3)c(-c3cccc(F)c3)n2)cc1	-14	-3	-8	-5	0	-1	-3	i
Cc1ccc(/C=N\NC(=O)/C(=C\Nc2nccc(C)n2)NC(=O)c2ccccc2)cc1	-6	-13	3	-4	-1	-6	35	i
CCCNC(=O)c1ccc(N2CCC3(CC2)CC(c2cccc(Br)c2)=NO3)c(NC(=O)c2ccc(Cl)c([N+](=O)[O-])c2)c1	-13	12	nt	nt	5	-4	-9	i
O=C(NCC1(c2ccccc2)CCCC1)c1ccc(Br)cc1	nt	1	27	-3	-4	-4	26	i
O=C1CCC(C(=O)N2CCN(c3ccccc3)CC2)CN1CC1CCCCC1 (stereo unspecified)	13	-8	12	3	-2	-6	3	i
Cn1c(=O)c2ncn(CC(=O)Nc3ccc(N4CCOCC4)cc3)c2n(C)c1=O	-4	-5	2	-1	3	0	-18	i
C[C@H](CO)N1C[C@H](C)[C@@H](CN(C)C(=O)Nc2ccc3c(c2)OCO3)Oc2c(NC(=O)Nc3ccccc3)cccc2C1=O	-12	nt	nt	nt	4	2	-35	nt
C/C(=N\OCC(=O)Nc1ccccc1C(C)(C)C)c1ccc2c(c1)OCCO2	-4	-2	-22	-12	0	-1	16	i
O=[N+]([O-])c1cc2c(cc1/C=N/n1c(-c3ccccn3)n[nH]c1=S)OCO2	nt	-2	-6	97	2	7	3	i	eIF4H FP inh retest=-6;PABP FP inh retest=7
Cn1cnnc1SCC(=O)Nc1ccc2nc(SCc3ccccc3)sc2c1	-11	64	-4	7	-4	-11	nt	i
CC(C)n1c(CN2CCN(C)CC2)nc2c1c(=O)n(C)c(=O)n2C	-15	6	nt	nt	-3	6	-2	i
COc1ccc(C(=O)Nc2nc(CC(=O)NCc3ccc(F)cc3)cs2)cc1	-5	-15	nt	nt	6	-5	-7	i
CC1(C)Cc2nc3oc4c(NCCCN5CCOCC5)ncnc4c3cc2CO1	-16	-10	6	1	-1	1	8	i
Cc1cccn2c(=O)c3cc(C(=O)N4COCC4(C)C)n(Cc4ccccc4)c3nc12	nt	-8	nt	nt	0	-2	2	i
Cc1cc(C(C)(C)C)ccc1OCCCCN1CCCC1	nt	?	-2	3	-2	0	5	i
COc1ccc(CCNC(=O)Cn2c(=O)[nH]c3ccsc3c2=O)cc1OC	nt	-13	-2	4	2	5	-4	i
CCOC(=O)C(Cc1ccccc1)C(=O)NCc1ccccc1 (stereo unspecified)	5	-6	-10	-6	-2	1	3	i
COc1ccc2[nH]c3c(c2c1)CNCC3	-11	nt	nt	nt	0	2	-2	nt
COCCN(Cc1nc2ccccc2c(=O)[nH]1)C(=O)COc1cccc(C(C)=O)c1	-17	-17	nt	nt	-5	2	nt	nt
CCOc1ccc(-c2nc(CSCC(=O)N3CCN(C(=O)c4ccco4)CC3)c(C)o2)cc1	7	-8	-7	74	0	-2	-19	i	eIF4H FP inh retest=-2;PABP FP inh retest=-5
